RE007 growth inh – less growth of the S. pombe RE007 Vpr strain; 0.21% of 360,000 active; S. pombe RE007 Vpr strain, BacTiter-Glo ATP luminescence, 24 h; control for the full effect not named in the record; Potency, µM (series often up to 92.2 µM), for inactives: at the top dose activity change, negative = less growth; active = well fitted falling curve with a large enough effect; inconclusive = small, poorly fitted or top-dose-only effect; inactive = no such curve, though single readings can be large or run the other way;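 also: % is scaled to controls: 0 for no effect and ±100 for the full control effect; nearly all actives have a fitted effect of over 50% in size; the assay follows cell death caused by Vpr and the record does not say whether a fall means rescue or toxicity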
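Fission yeast RE007 carrying one integrated HIV-1 vpr copy, seeded at OD 0.01 in PMG+AL medium with 23 nL pinned compound. Grown 24 h at 30 degrees; viability read by BacTiter-Glo luminescence after 5 min.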
Marburg entry inh – inhibitors of Marburg virus binding or cell entry; Marburg virus pseudotyped entry inhibition, cell reporter; control for the full effect not named in the record; about a third of the inactives were read at about 46 µM; Potency, µM (titrated, usually from 37.8 µM), for the others: at the highest dose activity change, negative = inhibition, actives largely listed as inhibitors; 1.8% of 300,000 active; AID 540276; active = well fitted inhibition curve with a large enough effect; inconclusive = small, poorly fitted or top-dose-only effect, or effect the other way; inactive = flat fitted curve, though single readings scatter; tested in HEK293 cells; about a fifth of its hits are not listed in these tables; also: % is scaled to controls: 0 for no effect and ±100 for the full control effect; luciferase read-out
Cruzain inh noDet – cruzain (T. cruzi) inhibition without detergent | AID 1476 | Potency, µM, without a hit: max response, negative = inhibition, most hits filed as inhibitors | 2.3% of 200,000 active | P25779 | purified cruzain, Z-FR-AMC fluorescence, no detergent;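 also: plate controls were enzyme without inhibitor for no effect and buffer without enzyme for full effect; nearly all actives have a fitted effect of over 40% in size; top concentration of the series not given in the record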
Target sequence (P25779 123-467 limits assumed): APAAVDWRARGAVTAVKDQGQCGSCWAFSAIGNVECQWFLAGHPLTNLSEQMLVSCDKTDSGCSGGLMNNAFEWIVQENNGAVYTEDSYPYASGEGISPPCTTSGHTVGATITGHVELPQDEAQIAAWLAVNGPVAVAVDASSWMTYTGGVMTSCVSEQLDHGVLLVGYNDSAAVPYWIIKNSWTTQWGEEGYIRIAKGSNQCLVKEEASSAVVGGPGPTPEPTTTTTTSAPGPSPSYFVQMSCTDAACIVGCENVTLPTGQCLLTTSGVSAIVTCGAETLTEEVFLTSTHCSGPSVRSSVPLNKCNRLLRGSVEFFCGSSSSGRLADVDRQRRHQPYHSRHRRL
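Purified cruzain at 1.5 nM, pre-incubated 15 min with compound at room temperature in 100 mM sodium acetate pH 5.5, 5 mM DTT, 0.00005% Triton X-100. Reaction started with 2 uM Z-FR-AMC; AMC fluorescence increase over 60 s gives rate.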
SARS PLP yeast – inhibitors of SARS-CoV papain-like protease in yeast; S. cerevisiae expressing SARS-CoV PLpro, growth rescue; control for the full effect not named in the record; Potency, µM (top dose mostly 32.9 µM), inactives show top-dose activity, positive = growth rescue; 0.19% of 330,000 active; AID 485353; active means well fitted rising curve with a large enough effect; inconclusive means small, poorly fitted or top-dose-only effect; inactive means no such curve, though single readings can be large or run the other way; also: 0% is about no effect; nearly all actives have a fitted effect of over 55% in size; growth read by luminescence after 48 h
LASV entry inh – Lassa virus entry inhibition | Lassa virus pseudotype entry inhibition, cell reporter; control for the full effect not named in the record | 1.2% of 300,000 active | Potency, µM (doses to about 37.9 µM), inactives show at the highest dose activity change, negative = inhibition, usual class: inhibitors | AID 540256; active means well fitted inhibition curve with a large enough effect; inconclusive means small, poorly fitted or top-dose-only effect, or effect the other way; inactive means flat fitted curve, though single readings scatter; tested in HEK293 cells; also: % is scaled to controls: 0 for no effect and ±100 for the full control effect; nearly all actives have a fitted effect of over 50% in size; luciferase read-out
2A StopGo – FMDV 2A StopGo reporter, luciferase signal; human cells with a luciferase reporter of 2A StopGo recoding; control for the full effect not named in the record; Potency, µM (titrated, usually from 57.9 µM), for the others: at the top dose signal change, negative = less light; 1.2% of 410,000 active; AID 1159524; active = well fitted falling curve with a large enough effect; inconclusive = small, poorly fitted or top-dose-only effect; inactive = no such curve, though single readings can be large or run the other way; tested in HEK293T cells; also: % is scaled to controls: 0 for no effect and ±100 for the full control effect; nearly all actives have a fitted effect of over 45% in size; luciferase light after 4 h
NS1 function inh – blocks influenza NS1 protein function | S. cerevisiae slowed by influenza A NS1, growth recovery by OD600 | Potency, µM (series often up to 46.1 µM), without a hit: at the highest dose activity, positive = more growth | 0.4% of 270,000 active; active means well fitted rising curve with a large enough effect; inconclusive means small, poorly fitted or top-dose-only effect; inactive means no such curve, though single readings can be large or run the other way; also: nearly all actives have a fitted effect of over 50% in size
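A cell-based growth assay was used: compounds that relieve NS1-induced slow growth of budding yeast raise OD600. Assay medium was yeast nitrogen base with ammonium sulphate and -URA supplement, pH 6.0, with 2% galactose.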
Cruzain Triton – inhibitors of Trypanosoma cruzi cruzain with detergent; purified cruzain, Z-FR-AMC fluorescence, 0.01% Triton; AID 1478; 0.43% of 200,000 active; Potency, µM, for inactives: max response, negative = inhibition, hits mostly inhibitors; P25779;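 also: plate controls were neutral wells for no effect and buffer without enzyme for full effect; nearly all actives have a fitted effect of over 40% in size; top concentration of the series not given in the record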
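15 min RT preincubation of 1.5 nM cruzain with compound, then 2 uM Z-FR-AMC added; kinetic AMC fluorescence, 60 s delta. Triton X-100 0.01%, pH 5.5.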
An asterisk follows results filed as active; ? = inconclusive; · = not tested or not shown; [ ] = another dose, or the depositor's remark. Unless noted, calls follow the shape of the dose curve; as a rule, active = well fitted curve in the direction sought with a large enough effect; inconclusive = small, poorly fitted or top-dose-only effect, or another doubt; inactive = no such curve, though single readings can be large; an effect the other way counts as inactive or inconclusive. Potency is read from the fitted curve at half-maximal effect.

SMILES	RE007 growth inh	Marburg entry inh	Cruzain inh noDet	SARS PLP yeast	LASV entry inh	2A StopGo	NS1 function inh	Cruzain Triton
COc1ccccc1CNC(=O)C1CCC(CNc2c(N3CCOCC3)c(=O)c2=O)CC1 (stereo not given)	7.4%	-1.2%	-2.7%	3.1%	·	-0.7%	-10.7%	0.4%
COC(=O)CC1SC(=O)NC1=Nc1ccc(OC)cc1 (stereo not given)	2.0%	6.5%	-4.4%	-0.6%	-1.9%	-3.0%	-0.3%	2.2%
O=C1CS/C(=N/N=C\c2ccn[nH]2)N1	-1.1%	1.7%	·	1.9%	-11.8%	-0.6%	4.2%	·
Cc1ccc(S(=O)(=O)Nc2ccccc2C(=O)NCc2cccnc2)cc1	-8.6%	-3.3%[46.1 µM]	·	0.4%	-2.3%	0.0%	0.9%	·
NC(=O)c1nsc(C(=O)N(Cc2ccc(F)cc2)C(C(=O)NC2CCCC2)c2ccco2)c1N (stereo not given)	1.0%	?	·	-9.6%	?	13.6%	9.2%	·
Cc1ccc(/C=C2/Sc3ccc(C(=O)N4CCC5(CC4)OCCO5)cc3NC2=O)cc1	-1.4%	-17.2%[46.1 µM]	·	-1.2%	1.7%	16.1%	9.1%	·
O=C(CCc1nc(-c2ccccc2)no1)Nc1cccnc1	-24.5%	1.1%[46.1 µM]	·	0.4%	·	-26.4%	-4.9%	·
O=C1c2ccccc2C(Nc2cccnc2)N1Cc1ccccc1 (stereo not given)	-10.6%	·	6.0%	1.7%	·	-5.5%	3.9%	1.9%
COc1ccc(NC(=S)N2CCN(S(=O)(=O)c3ccc(F)cc3)CC2)cc1	-21.8%	8.6%[46.1 µM]	·	0.9%	6.9%[46.1 µM]	29.1%	-1.6%	·
CCOC(=O)CCc1nn(C)c(=O)c2ccccc12	-3.0%	-6.4%	12.1%	1.0%	0.3%	-27.4%	2.0%	-3.6%
CCn1c(SCC(=O)Nc2sc(C)c(C)c2C#N)nnc1C(C)C	-3.3%	-19.6%[46.1 µM]	?	3.3%	-15.8%	-6.6%	-1.8%	-4.2%
CCCC(C)NC(=O)CSCc1ccc(OC)cc1 (stereo not given)	10.8%	1.1%[46.1 µM]	·	0.2%	13.1%	5.2%	-4.8%	·
Cc1ccccc1NC(=O)NCCCN1CCN(C2CCCCC2)CC1	0.3%	-12.6%	4.3%	2.0%	8.6%	-22.6%	?	3.0%
COc1ccc2c(c1)C(SCC(=O)NCc1ccccc1)CC(C)(C)O2 (stereo not given)	12.0%	-3.2%	-0.6%	-15.3%	-8.2%	0.0%	-17.8%	0.4%
O=C(CC1Sc2ccccc2NC1=O)c1ccc(Br)cc1 (stereo not given)	-0.8%	41.0%	-18.1%	-1.7%	-2.9%	13.9%	28.5%	-2.3%
CCCNS(=O)(=O)c1ccc(NC(=O)c2ccccn2)cc1	-16.2%	?	-11.3%	-0.7%	?	36.6%[activator]	0.4%	-0.9%
CCOC(=O)c1ccc(NC(=O)Cn2c(-c3nonc3N)nc3ccccc32)cc1	-16.5%	-24.6%	·	-0.1%	11.4%	-1.0%	·	·
CCN1CCN(CC(O)COc2ccc3c(c2)CCC3)CC1 (stereo not given)	5.4%	2.1%	-2.3%	0.7%	2.1%	-6.7%	14.7%	-4.2%
CCC(CC)c1nnc(NC(=O)CCNC(=O)c2ccccc2Cl)s1	12.7%	-7.3%[46.1 µM]	·	2.3%	-16.0%	-10.3%	·	·
COc1ccc(CN2CCC(CO)(CCOc3ccccc3)CC2)cc1C	3.2%	?	·	0.5%	12.1%	-12.0%	0.8%	·
Clc1ccccc1N=C1NN=C(c2cccs2)CS1	-7.7%	?	·	-3.2%	?	0.0%	·	·
COc1ccccc1CNC(=O)c1oc2ccc(S(=O)(=O)N3CCCC3)cc2c1C	-1.5%	?	1.2%	3.2%	-19.6%	?	17.2%	2.2%
O=c1ccn(CCOc2ccc(Cl)cc2)c(=O)[nH]1	4.3%	-3.6%	-8.8%	2.5%	6.8%	-0.9%	?	3.2%
CCCC(=O)N1CCN(c2ccc(C(=O)c3ccc(OC)c(Br)c3)cc2F)CC1	·	·	8.1%	-3.6%	·	·	-18.0%	-4.5%
CC(C)(C)C1CCC(=NNC(=O)C(=O)NCc2ccco2)CC1 (stereo not given)	-8.2%	7.9%	·	0.4%	?	4.2%	-2.0%	·
SMILES	RE007 growth inh	Marburg entry inh	Cruzain inh noDet	SARS PLP yeast	LASV entry inh	2A StopGo	NS1 function inh	Cruzain Triton
CC(OC(=O)Nc1cccc(Cl)c1)C(=O)O (stereo not given)	2.8%	12.2%[46.1 µM]	·	-1.6%	-6.1%	4.8%	-62.4%	·
CC1=C(C(=O)Nc2ccc(C)cc2C)C(c2ccc(C)o2)NC(=S)N1 (stereo not given)	·	6.2%	-7.2%	-2.6%	8.7%	-7.7%	19.8%	-3.4%
O=C(NCC1CCCCC1)c1cccnc1Cl	-23.7%	-4.6%[46.1 µM]	·	2.0%	0.0%[46.1 µM]	4.1%	-7.9%	·
CCCC(=O)N(c1ccc2oc(C)c(C(C)=O)c2c1)S(=O)(=O)c1ccc(C)c([N+](=O)[O-])c1	1.0%	8.9%	4.8%	1.5%	3.1%	?	7.3%	-5.2%
O=C(CSc1ccccc1)Nc1ccc2c(c1)C(=O)NC2=O	-7.4%	·	·	-9.6%	·	5.1%	-0.5%	·
Oc1cccc(-c2nnc(-c3cccc(O)c3)nn2)c1	-8.1%	?	·	·	?	8.91µM*	·	·
CCCC(=O)Nc1ccc2nn(-c3ccc(OC)cc3)nc2c1	-8.8%	?	·	-0.9%	?	17.5%	-16.3%	·
COc1ccc(-c2nc(-c3ccc(Br)cc3)no2)c(OC)c1	-7.2%	?	?	·	54.1%[14.3 µM]	37.9%[activator]	5.3%	-1.2%
CC(Sc1nc(NCc2ccccc2)nc(N(C)C)n1)C(=O)Nc1ccccc1 (stereo not given)	2.8%	-29.1%	2.6%	3.4%	?	0.0%	19.7%	-2.9%
Cn1ccnc1SCC(=O)c1ccc(O)cc1	-8.4%	·	·	0.9%	·	48.7%[activator]	3.6%	·
Cc1ccc(S(=O)(=O)N2CCOCC2)cc1NC(=O)CN1CCN(C)CC1	0.0%	25.8%	·	-0.5%	10.4%	-19.4%	·	·
CC(C)C(=O)NC(=S)Nc1ccc(S(=O)(=O)Nc2nccs2)cc1	-2.7%	-13.1%[46.1 µM]	·	0.3%	-19.3%	111.3%[activator]	0.3%	·
O=C(CN1CCN(c2ccccn2)CC1)Nc1cccc(Br)c1	2.4%	12.6%[46.1 µM]	·	-0.5%	20.6%[46.1 µM]	-4.0%	-5.1%	·
COc1ccc(CCN(C)C/C=C/c2ccccc2[N+](=O)[O-])cc1OC	-2.4%	·	·	7.7%	·	-15.1%	4.0%	·
CC(C)[C@H](NC(=O)c1ccccc1F)C(=O)Nc1ccc(F)c(F)c1	0.1%	17.8%	·	-0.5%	-6.1%	10.2%	1.0%	·
Cc1ccc(C)c(Cn2c(=O)n(Cc3ccc(C(=O)NC4CCN(Cc5ccccc5)CC4)cc3)c(=O)c3ccccc32)c1	·	-7.1%[46.1 µM]	-2.0%	·	3.2%[46.1 µM]	-20.8%	·	-1.7%
CCOc1ccc(C(=O)NCC(=O)N2CCC(C)CC2)cc1OCC	-22.2%	0.3%[46.1 µM]	·	-4.4%	17.1%	-8.9%	·	·
COC(=O)c1[nH]c2ccc(F)cc2c1NC(=O)CCN1CC(C)OC(C)C1 (stereo not given)	15.9%	-5.4%	5.5%	10.0%	-4.1%	1.2%	5.1%	3.4%
COC(=O)c1ccccc1NC(=O)CN1CCCCCC1	-0.4%	·	·	0.0%	·	-16.6%	-7.8%	·
O=C(Nc1ccc(Cl)c(Cl)c1)Nc1ccccc1NS(=O)(=O)c1cccs1	5.7%	?	-10.0%	-89.6%	3.9%	-7.8%	9.6%	-10.1%
CCN(CC)c1ccc(C(=O)O)cc1	-15.5%	·	5.1%	-14.6%	·	0.0%	4.6%	-0.9%
N#Cc1ccccc1OCCOCCNC1CCCC1	-12.0%	?	2.6%	1.4%	11.5%[46.1 µM]	-13.2%	-2.7%	1.1%
CC1SC2(CN3CCC2CC3)NC1=O (stereo not given)	-1.4%	17.3%	10.7%	6.9%	-1.2%	-16.3%	-24.9%	-1.8%
COc1ccc(OC)c(-c2csc(N(CC3CCCO3)C(=O)Cc3ccccc3)n2)c1 (stereo not given)	15.2%	·	·	0.6%	·	-4.6%	5.8%	·
Cc1ccc(CSC2=NCCN2C(=O)C(C)Oc2ccccc2)cc1 (stereo not given)	-7.7%	13.2%[46.1 µM]	·	1.0%	4.6%	3.4%	·	·
SMILES	RE007 growth inh	Marburg entry inh	Cruzain inh noDet	SARS PLP yeast	LASV entry inh	2A StopGo	NS1 function inh	Cruzain Triton
CCOC(=O)/C(C#N)=C/Nc1cc(C(=O)OCC)cc2c(OC)c(OC)ccc12	2.2%	?	·	0.4%	-32.5%	-2.5%	4.3%	·
O=C(Nc1ccc(O)c2c(=O)cc(-c3ccccc3Cl)oc12)c1ccc(Cl)c(Cl)c1	-15.4%	·	·	1.2%	·	-17.1%	7.2%	·
CC(C)CC(=O)NCc1ccc(F)cc1	?	-3.9%	1.8%	7.1%	-0.3%	-14.8%	1.0%	-1.7%
COc1cccc(N2CCN(C(=O)c3ccc4c(Cl)c5c(nc4c3)CCCC5)CC2)c1	·	-10.9%[46.1 µM]	8.9%	·	?	?	·	-0.3%
Cc1cc(-c2[nH]nc3c2C(c2cccc(O)c2)C(C#N)=C(N)O3)c(C)s1 (stereo not given)	17.5%	-1.2%	3.9%	-10.0%	7.6%	-2.6%	6.5%	-6.2%
Cc1sc2ncnc(N(C)C3CCCCC3)c2c1C	10.7%	-25.1%[46.1 µM]	·	1.5%	-6.5%	-22.5%	2.4%	·
CCN(CC)CCC(c1ccc(N(C)C)cc1)c1c(O)cc(OC)cc1OC (stereo not given)	-4.7%	·	·	-4.7%	·	-16.2%	?	·
CC(=O)N1CCc2c(sc3c2c(=O)n(CCc2ccccc2)c(=O)n3Cc2ccc(F)cc2)C1	·	?	?	·	·	?	·	-9.1%
CN(c1ccc(C(=O)Nc2cccnc2)cc1)S(=O)(=O)c1ccccc1	-15.0%	-24.0%[46.1 µM]	·	0.1%	-4.0%	?	1.7%	·
CCOc1cc(CN2CCCC(CNC(=O)c3ccc(F)cc3)C2)ccc1OC (stereo not given)	-1.8%	·	·	0.8%	·	-5.3%	4.5%	·
CSc1ccccc1C(=O)N1CCOCC1	0.4%	11.7%	-4.5%	-10.0%	19.3%	10.6%	2.5%	-0.5%
CCOc1cc(C(=O)NCC(=O)N2CCC3(CC2)NCCc2[nH]cnc23)cc(OCC)c1OCC	-11.4%	2.5%[46.1 µM]	·	-3.0%	?	-9.6%	-12.2%	·

Screening data deposited in PubChem by National Center for Advancing Translational Sciences (NCATS).
